LASV entry inh = qHTS for Inhibitors of binding or entry into cells for Lassa Virus | Lassa virus pseudotype entry inhibition, cell reporter; control for the full effect not named in the record | Potency, µM (top dose mostly 37.9 µM), for inactives: at the top dose activity change, negative = inhibition, usual class: inhibitors | 300,000 tested, 1.2% active | AID 540256, 2011; active means well fitted inhibition curve with a large enough effect; inconclusive means small, poorly fitted or top-dose-only effect, or effect the other way; inactive means flat fitted curve, though single readings scatter; tested in HEK293 cells; also: % is scaled to controls: 0 for no effect and ±100 for the full control effect; nearly all actives have a fitted effect of over 50% in size; luciferase read-out
Cruzain Triton = qHTS Assay for Promiscuous and Specific Inhibitors of Cruzain (with detergent); Cruzipain (Trypanosoma cruzi), P25779; purified cruzain, Z-FR-AMC fluorescence, 0.01% Triton; Potency, µM, for inactives: max response, negative = inhibition, most hits filed as inhibitors; 200,000 tested, 0.43% active;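 also: plate controls were neutral wells for no effect and buffer without enzyme for full effect; nearly all actives have a fitted effect of over 40% in size; top concentration of the series not given in the record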
Target sequence (P25779 123-467 limits assumed): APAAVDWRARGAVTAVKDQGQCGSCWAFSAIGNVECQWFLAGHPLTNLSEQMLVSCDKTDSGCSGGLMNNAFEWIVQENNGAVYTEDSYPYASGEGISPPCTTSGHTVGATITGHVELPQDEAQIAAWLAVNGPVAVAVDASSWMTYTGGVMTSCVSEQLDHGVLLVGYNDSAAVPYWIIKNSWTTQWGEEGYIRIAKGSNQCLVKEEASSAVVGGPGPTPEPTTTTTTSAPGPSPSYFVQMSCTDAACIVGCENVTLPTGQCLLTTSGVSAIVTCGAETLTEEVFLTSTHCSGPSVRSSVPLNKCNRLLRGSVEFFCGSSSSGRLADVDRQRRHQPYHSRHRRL
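Steps: dispense cruzain (1.5 nM final) in acetate buffer pH 5.5 with DTT and 0.01% Triton X-100; pin-transfer compounds; incubate 15 min RT; add Z-FR-AMC (2 uM final); read fluorescence every 30 s, using the 60 s intensity change.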
NS1 function inh = qHTS Assay for Inhibitors of Influenza NS1 Protein Function; S. cerevisiae slowed by influenza A NS1, growth recovery by OD600; Potency, µM (doses to about 46.1 µM), for the others: at the highest dose activity, positive = more growth; 270,000 tested, 0.4% active; AID 2326, 2010; active means well fitted rising curve with a large enough effect; inconclusive means small, poorly fitted or top-dose-only effect; inactive means no such curve, though single readings can be large or run the other way; also: nearly all actives have a fitted effect of over 50% in size
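Growth recovery, yeast-based: influenza A NS1 expressed in S. cerevisiae causes slow growth, and suppressors are detected by OD600. The parent strain without NS1 is used as positive control.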
RE007 growth inh = qHTS Assay for Inhibitors of the HIV-1 protein Vpr | S. pombe RE007 Vpr strain, BacTiter-Glo ATP luminescence, 24 h; control for the full effect not named in the record | 360,000 tested, 0.21% active | Potency, µM (titrated, usually from 92.2 µM), for inactives: at the highest dose activity change, negative = less growth; active = well fitted falling curve with a large enough effect; inconclusive = small, poorly fitted or top-dose-only effect; inactive = no such curve, though single readings can be large or run the other way;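 also: % is scaled to controls: 0 for no effect and ±100 for the full control effect; nearly all actives have a fitted effect of over 50% in size; the assay follows cell death caused by Vpr and the record does not say whether a fall means rescue or toxicity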
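Fission yeast RE007 carrying one integrated HIV-1 vpr copy, seeded at OD 0.01 in PMG+AL medium with 23 nL pinned compound. Grown 24 h at 30 degrees; viability read by BacTiter-Glo luminescence after 5 min.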
Cruzain inh noDet = qHTS Assay for Promiscuous and Specific Inhibitors of Cruzain (without detergent); Cruzipain (Trypanosoma cruzi), P25779; purified cruzain, Z-FR-AMC fluorescence, no detergent; Potency, µM, for the others: max response, negative = inhibition, actives largely listed as inhibitors; 200,000 tested, 2.3% active;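 also: plate controls were enzyme without inhibitor for no effect and buffer without enzyme for full effect; nearly all actives have a fitted effect of over 40% in size; top concentration of the series not given in the record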
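Purified cruzain at 1.5 nM, pre-incubated 15 min with compound at room temperature in 100 mM sodium acetate pH 5.5, 5 mM DTT, 0.00005% Triton X-100. Reaction started with 2 uM Z-FR-AMC; AMC fluorescence increase over 60 s gives rate.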
2A StopGo = High Throughput Screening for Foot and Mouth Disease Virus Antivirals. 410,000 tested, 1.2% active. human cells with a luciferase reporter of 2A StopGo recoding; control for the full effect not named in the record. AID 1159524, 2015. Potency, µM (titrated, usually from 57.9 µM), inactives show at the top dose signal change, negative = less light; active = well fitted falling curve with a large enough effect; inconclusive = small, poorly fitted or top-dose-only effect; inactive = no such curve, though single readings can be large or run the other way; tested in HEK293T cells; also: % is scaled to controls: 0 for no effect and ±100 for the full control effect; nearly all actives have a fitted effect of over 45% in size; luciferase light after 4 h
SARS PLpro yeast = qHTS of Yeast-based Assay for SARS-CoV PLP | S. cerevisiae expressing SARS-CoV PLpro, growth rescue; control for the full effect not named in the record | AID 485353, 2010 | Potency, µM (doses to about 32.9 µM), for the others: at the top dose activity, positive = growth rescue | 330,000 tested, 0.19% active; active means well fitted rising curve with a large enough effect; inconclusive means small, poorly fitted or top-dose-only effect; inactive means no such curve, though single readings can be large or run the other way; also: 0% is about no effect; nearly all actives have a fitted effect of over 55% in size; growth read by luminescence after 48 h
Marburg entry inh = qHTS for inhibitors of binding or entry into cells for Marburg Virus; Marburg virus pseudotyped entry inhibition, cell reporter; control for the full effect not named in the record; about a third of the inactives were read at about 46 µM; Potency, µM (series often up to 37.8 µM), inactives show at the highest dose activity change, negative = inhibition, usual class: inhibitors; 300,000 tested, 1.8% active; AID 540276, 2011; active = well fitted inhibition curve with a large enough effect; inconclusive = small, poorly fitted or top-dose-only effect, or effect the other way; inactive = flat fitted curve, though single readings scatter; tested in HEK293 cells; about a fifth of its hits are not listed in these tables; also: % is scaled to controls: 0 for no effect and ±100 for the full control effect; luciferase read-out
Starred values were filed as active, the others as inactive; [ ] = another dose, or the depositor's remark. Unless noted, calls follow the shape of the dose curve; as a rule, active = well fitted curve in the direction sought with a large enough effect; inconclusive = small, poorly fitted or top-dose-only effect, or another doubt; inactive = no such curve, though single readings can be large; an effect the other way counts as inactive or inconclusive. Potency is read from the fitted curve at half-maximal effect.

How did O=c1oc2c(Cl)cc(Cl)cc2cc1-c1nnc(Nc2ccccc2F)s1 do in these assays?
Cruzain Triton: 4.8%; NS1 function inh: 0.3%; Cruzain inh noDet: 4.0%; SARS PLpro yeast: 1.8%; Marburg entry inh: 0.0%

Results for Cc1ccc(S(=O)(=O)NNC(=O)c2ccc3ccccc3n2)cc1 ?
LASV entry inh: -6.3%[46.1 µM]; NS1 function inh: -25.6%; RE007 growth inh: -10.7%; 2A StopGo: -14.7%; SARS PLpro yeast: -3.1%; Marburg entry inh: -2.0%[46.1 µM]

Results for COCc1cc(Sc2ccc(Cl)cc2Cl)nc(-c2ccccc2)n1 ?
LASV entry inh: -14.6%; Cruzain Triton: 0.3%; NS1 function inh: 4.6%; RE007 growth inh: -14.1%; Cruzain inh noDet: -21.2%; 2A StopGo: 0.0%; SARS PLpro yeast: -1.9%; Marburg entry inh: -22.7%

How did COc1ccccc1C1CC(c2ccccc2)=NN1C(=O)c1ccccc1 (centres undefined) do in these assays?
NS1 function inh: -8.2%; RE007 growth inh: -11.9%; 2A StopGo: 0.0%; SARS PLpro yeast: -4.5%

Results for CCn1cc(C(=O)NCCCOC(C)C)c2cc(OC)c(OC)cc2c1=O ?
LASV entry inh: 7.2%; Cruzain Triton: 1.3%; NS1 function inh: 4.2%; RE007 growth inh: 2.8%; Cruzain inh noDet: 4.1%; 2A StopGo: -14.0%; SARS PLpro yeast: 2.5%; Marburg entry inh: 0.9%[46.1 µM]

What do the screens show for `Cc1c(CCC(=O)N2CCC(C(=O)NCCCCCC(=O)O)CC2)c(=O)oc2cc3oc4c(c3cc12)CCCC4`?
LASV entry inh: 9.3%[46.1 µM]; NS1 function inh: 21.5%; RE007 growth inh: 16.3%; 2A StopGo: -0.3%; SARS PLpro yeast: 3.5%; Marburg entry inh: inconclusive

How did C=CC[n+]1cccc(-c2cc3ccc(C)cc3[nH]2)c1 do in these assays?
LASV entry inh: -19.5%[46.1 µM]; NS1 function inh: 0.4%; RE007 growth inh: inconclusive; 2A StopGo: -11.9%; SARS PLpro yeast: 0.6%; Marburg entry inh: 1.3%[46.1 µM]

Results for O=C(CCc1c[nH]c2ccccc12)N1CCCCCCC1 ?
LASV entry inh: 0.0%[46.1 µM]; NS1 function inh: -7.1%; RE007 growth inh: 9.0%; 2A StopGo: 18.2%; SARS PLpro yeast: 1.5%; Marburg entry inh: 17.9%[46.1 µM]

How did CCn1c(SCC(=O)Nc2ccc3c(c2)c2ccccc2n3CC)nnc1-c1ccco1 do in these assays?
LASV entry inh: -29.3%; Cruzain Triton: 7.8%; NS1 function inh: -3.1%; RE007 growth inh: -2.7%; Cruzain inh noDet: inconclusive; SARS PLpro yeast: -1.6%; Marburg entry inh: -14.2%

Results for O=C(CSC1CC(=O)N(CCc2ccccc2)C1=O)Nc1ccc(Cl)cc1 (centres undefined) ?
LASV entry inh: 3.8%; Cruzain Triton: -6.0%; NS1 function inh: -1.9%; Cruzain inh noDet: 3.5%; 2A StopGo: -22.4%; SARS PLpro yeast: 6.9%; Marburg entry inh: 3.2%

What do the screens show for `Cc1cccc(NC(=O)CSc2nc3ccccc3nc2N2CC(C)OC(C)C2)c1` (centres undefined)?
NS1 function inh: -5.6%; RE007 growth inh: 7.7%; 2A StopGo: -0.3%; SARS PLpro yeast: -3.5%

How did COc1ccc(N2CCN(C(=O)c3cccc(N4C(=O)C5CC=CC(C)C5C4=O)c3)CC2)cc1 (centres undefined) do in these assays?
LASV entry inh: -32.4%[14.3 µM]; Cruzain Triton: 2.8%; NS1 function inh: 2.1%; RE007 growth inh: 25.8%; Cruzain inh noDet: -7.6%; 2A StopGo: -27.0%; SARS PLpro yeast: 5.5%; Marburg entry inh: -5.2%

Results for COc1ccc(/C=N/Nc2nc(-c3ccc(C)cc3)c(NC(C)=O)s2)cc1 ?
LASV entry inh: 10.5%[46.1 µM]; NS1 function inh: 18.0%; RE007 growth inh: -15.3%; 2A StopGo: 52.8%[activator]; SARS PLpro yeast: 11.1%; Marburg entry inh: 14.6%[46.1 µM]

Results for Nc1nc2cc(Cl)c(Br)cc2o1 ?
LASV entry inh: 0.1%[46.1 µM]; RE007 growth inh: 1.2%; 2A StopGo: 7.7%; Marburg entry inh: -5.9%

Results for Cc1ccc(C(=O)C(OC(=O)CNS(=O)(=O)c2ccccc2)c2ccccc2)cc1 (centres undefined) ?
LASV entry inh: 11.7%; Cruzain Triton: inconclusive; NS1 function inh: -11.0%; RE007 growth inh: -9.9%; Cruzain inh noDet: 31.6µM*; 2A StopGo: 6.3%; SARS PLpro yeast: -0.9%; Marburg entry inh: 10.0%

How did O=C(CSc1nc2ccc(Cl)cc2o1)NCc1ccc2c(c1)OCO2 do in these assays?
LASV entry inh: -21.1%; Cruzain Triton: 6.3%; NS1 function inh: 1.5%; RE007 growth inh: -7.6%; Cruzain inh noDet: -4.4%; 2A StopGo: -4.9%; SARS PLpro yeast: 13.2%; Marburg entry inh: -4.8%

How did O=C(O)CNS(=O)(=O)c1ccc(F)cc1 do in these assays?
LASV entry inh: -6.6%; Cruzain Triton: 15.2%; NS1 function inh: -5.7%; RE007 growth inh: -3.0%; Cruzain inh noDet: 2.3%; 2A StopGo: -15.7%; SARS PLpro yeast: -1.3%; Marburg entry inh: inconclusive

What do the screens show for `CC(C)(C)NC(=O)C(c1c[nH]c2ccccc12)N(C(=O)Cn1nnc(-c2ccc(F)cc2)n1)c1cccc(O)c1` (centres undefined)?
LASV entry inh: inconclusive; Cruzain Triton: -7.5%; NS1 function inh: inconclusive; RE007 growth inh: 7.6%; Cruzain inh noDet: 11.8%; 2A StopGo: inconclusive; SARS PLpro yeast: 1.9%; Marburg entry inh: 11.2µM*

Results for CC(C)=CC(=O)OCC(=O)Nc1ccccc1Cl ?
LASV entry inh: 0.7%; Cruzain Triton: 0.8%; NS1 function inh: -18.7%; RE007 growth inh: -29.7%; Cruzain inh noDet: 7.1%; 2A StopGo: 26.2%; SARS PLpro yeast: 0.9%; Marburg entry inh: 4.5%

How did O=C(Nc1ccc(C2=NCCN2)cc1)c1ccc(C(=O)Nc2ccc(C3=NCCN3)cc2)c(Cl)c1 do in these assays?
NS1 function inh: -46.4%; RE007 growth inh: inconclusive; 2A StopGo: -9.2%; SARS PLpro yeast: -4.4%

What do the screens show for `COc1cccc(C2CC(c3cccc(Br)c3)n3ncnc3N2)c1` (centres undefined)?
LASV entry inh: inconclusive; Cruzain Triton: -3.9%; NS1 function inh: -20.0%; RE007 growth inh: 1.0%; Cruzain inh noDet: 0.4%; 2A StopGo: -9.7%; SARS PLpro yeast: 4.2%; Marburg entry inh: -19.6%

Results for COc1ccc(NC(=O)CSc2nc(C3CC3)nc3ccccc23)c(OC)c1 ?
LASV entry inh: -10.5%; NS1 function inh: -13.7%; RE007 growth inh: 16.9%; 2A StopGo: inconclusive; SARS PLpro yeast: -12.4%; Marburg entry inh: -13.6%[46.1 µM]

Results for COc1ccc(C(=O)N[C@H](C(=O)Nc2nc3ccccc3[nH]2)C(C)C)cc1 ?
LASV entry inh: inconclusive; RE007 growth inh: -0.3%; 2A StopGo: 14.2%; SARS PLpro yeast: -0.1%; Marburg entry inh: inconclusive

How did N#CC1=C(N)Oc2ccc3ccc(O)cc3c2C1c1ccsc1 (centres undefined) do in these assays?
LASV entry inh: -29.8%; Cruzain Triton: -16.2%; NS1 function inh: 0.0%; RE007 growth inh: -7.4%; Cruzain inh noDet: -3.3%; 2A StopGo: -28.6%; SARS PLpro yeast: -5.3%; Marburg entry inh: inconclusive

What do the screens show for `Cc1nn(Cc2c(F)c(F)c(F)c(F)c2F)c(C)c1NC(=O)c1nn(C)cc1Br`?
NS1 function inh: 0.2%; RE007 growth inh: 1.2%; 2A StopGo: -15.7%; SARS PLpro yeast: -5.2%

What do the screens show for `Cc1nc(N)[nH]c(=O)c1CCCNc1ccc(CCCCC2(CCl)OCCO2)cc1`?
LASV entry inh: -15.8%[46.1 µM]; RE007 growth inh: 4.3%; 2A StopGo: -11.4%; Marburg entry inh: inconclusive

How did CC(C)n1c(SCC(N)=O)nc2c1c(=O)n(C)c(=O)n2C do in these assays?
LASV entry inh: inconclusive; Cruzain Triton: -1.0%; NS1 function inh: -9.0%; RE007 growth inh: 1.3%; Cruzain inh noDet: -5.4%; 2A StopGo: 6.9%; SARS PLpro yeast: -7.9%; Marburg entry inh: -1.1%

Results for CCC(Sc1nnc(C)c(=O)[nH]1)C(=O)Nc1cccc2ccccc12 (centres undefined) ?
LASV entry inh: 3.2%; NS1 function inh: 2.8%; RE007 growth inh: -2.3%; 2A StopGo: 10.8%; SARS PLpro yeast: -3.5%; Marburg entry inh: inconclusive

How did CCCCn1nc2cc(C(=O)NCC34CC5CC(CC(C5)C3)C4)ccc2c1OCC do in these assays?
Cruzain Triton: -7.1%; NS1 function inh: 18.7%; RE007 growth inh: 17.2%; Cruzain inh noDet: 4.3%; 2A StopGo: -27.3%; SARS PLpro yeast: -4.6%

Results for CCOc1ccccc1C1CC(=O)NC(C)=C1C(=O)OCc1ccc(C)cc1 (centres undefined) ?
LASV entry inh: -14.2%[46.1 µM]; Cruzain Triton: -10.7%; Cruzain inh noDet: -5.4%; 2A StopGo: inconclusive; Marburg entry inh: 11.8%[46.1 µM]

Results for COc1ccc(-c2cccc(C(=O)Nc3ccccc3C)c2)cc1 ?
LASV entry inh: 18.3%; Cruzain Triton: 0.5%; NS1 function inh: 2.8%; Cruzain inh noDet: -25.2%; 2A StopGo: 1.9%; SARS PLpro yeast: -12.2%; Marburg entry inh: inconclusive

How did COC(=O)C1=C(NC(=O)C(C)(C)C)CCS1 do in these assays?
LASV entry inh: -9.2%; Cruzain Triton: 0.8%; NS1 function inh: 1.6%; RE007 growth inh: -13.4%; Cruzain inh noDet: -3.2%; 2A StopGo: -7.4%; SARS PLpro yeast: 8.6%; Marburg entry inh: 11.1%

Results for CCCN1C2CCCC1CC(NC(=O)Nc1ccc(C(C)C)cc1)C2 (centres undefined) ?
LASV entry inh: inconclusive; Cruzain Triton: -1.2%; NS1 function inh: 10.9%; RE007 growth inh: -3.3%; Cruzain inh noDet: 2.6%; 2A StopGo: -5.9%; SARS PLpro yeast: -0.4%; Marburg entry inh: inconclusive

Source: PubChem

Random draw from the library. About 4.7% of those tested had a hit in this group.
